PINK1 modulator: changes PINK1 expression; AID 624263; actives 0.2% (n = 410,000); Potency, µM (highest dose often 76.6 µM), without a hit: at the top dose activation (PINK1 increase), usual class: activators; PINK1 immunofluorescence, high-content cytometry, 24 h; active = well fitted activation curve with a large enough effect; inconclusive = small, poorly fitted or top-dose-only effect; inactive = flat fitted curve, though single readings scatter; cell line not stated here;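 also: % of control where 0% means no effect; nearly all actives have a fitted effect of over 65% in size; a mitochondrial uncoupler was the plate control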
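Stable cell line treated 24 h with compounds at 5 concentrations (CCCP controls), then fixed and immunostained for PINK1 plus nuclear and cell stains; PINK1 immunofluorescence quantified by laser-scanning microplate cytometry.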
The depositor's hits bear a star. Potency is read from the fitted curve at half-maximal effect.

How did CCC1CN(Cc2cn[nH]c2-c2ccc(OC)cc2)Cc2cc(OC)ccc2O1 (stereo not given) do in these assays?
PINK1 modulator: 5.6%

Results for Oc1ccccc1C1C=C(c2ccc3c(c2)OCO3)NC(c2cccc(Br)c2)N1 (stereo not given) ?
PINK1 modulator: 0.5%

What do the screens show for `COCc1c(C(=O)NC2CCOC(C)(C)C2)cnn1-c1nccc(-c2cccs2)n1` (stereo not given)?
PINK1 modulator: -0.9%

Results for CN(Cc1ccco1)c1ncnc2ccc(-c3ccc4c(ccn4C)c3)cc12 ?
PINK1 modulator: -1.2%

Results for COc1ccc(-n2ccc(-c3sc(NCc4cc(OC)c5c(c4)OCO5)nc3C)n2)cc1 ?
PINK1 modulator: -0.5%

What do the screens show for `COCc1ccc(CN2CCOc3ccc(C4=CCCCC4)cc3C2)o1`?
PINK1 modulator: 0.1%

How did Cc1ccc(CN2C(=O)[C@@H]3Cc4c([nH]c5ccccc45)C(C)(C)N3C2=O)cc1 do in these assays?
PINK1 modulator: 12%

Results for CCN1CCN(C(=O)c2cc(NC(=O)COC)cc3nc(-c4ccncc4)n(C)c23)CC1 ?
PINK1 modulator: 1.2%

What do the screens show for `COc1cccc(O)c1CN1CCC2(CC1)c1ccccc1[C@@H](NC(=O)c1ccsc1)[C@@H]2OC`?
PINK1 modulator: -0.8%

How did COc1cc(=O)n2c(c1C(=O)N(C)Cc1cscn1)CCN(C(=O)c1cccc(C)c1C)CC2 do in these assays?
PINK1 modulator: 0.2%

Results for OC1(c2cccnc2)CCN(Cc2ccc3c(c2)CN(Cc2cccc4nccnc24)CCO3)CC1 ?
PINK1 modulator: 0.2%

Results for CN(Cc1ccco1)Cc1cc(-c2ccnc3cc(Cl)ccc23)ccc1O ?
PINK1 modulator: -0.5%

Results for CCC1(C2CCN(Cc3cc4ccccc4o3)CC2)NC(=O)N(CC2COc3ccccc3O2)C1=O (stereo not given) ?
PINK1 modulator: -0.2%

What do the screens show for `O=C(Cn1cncn1)N1CCOc2ccc(CN3CCN(c4ccccc4)CC3)cc2C1`?
PINK1 modulator: -0.1%

Results for COC(=O)[C@@H]1CCCN1Cc1ccc2c(c1)CN(Cc1ccc3c(c1)OCCO3)CCO2 ?
PINK1 modulator: 0.4%

Results for O=C1c2ccccc2NC(c2ccc(-c3ccccc3F)o2)N1O (stereo not given) ?
PINK1 modulator: inconclusive

What do the screens show for `O=CN1CCCN(C(=O)c2cc(NC(=O)c3ccccc3)cc3ncn(C4CCCC4)c23)CC1`?
PINK1 modulator: -0.4%

Results for Cc1ccc(CN2C[C@H](Sc3ccccn3)C[C@H]2C(=O)Nc2ccc3sc(C)nc3c2)s1 ?
PINK1 modulator: -0.1%

How did CN1N=C(C(=O)N2CCOc3ccc(CN4CCCC(C(=O)c5cccnc5)C4)cc3C2)CCC1=O (stereo not given) do in these assays?
PINK1 modulator: -0.8%

How did Cc1ccc(C)c(CN2C[C@H](Sc3nc4ccccc4[nH]3)C[C@H]2C(=O)N2CCCN(C)CC2)c1 do in these assays?
PINK1 modulator: -1.1%

What do the screens show for `CCC1C(=O)NCCN1Cc1ccc2c(c1)CN(Cc1cccn1-c1ccc(Cl)cn1)CCO2` (stereo not given)?
PINK1 modulator: 1.8%

How did COc1ccc(-c2nc(N3CCN(S(=O)(=O)c4ccc(F)cc4)CC3)c3ccccc3n2)cc1 do in these assays?
PINK1 modulator: 0.3%

What do the screens show for `CCOC(=O)C1CCCCN1C(=O)c1ccc(-n2cc(NC(=O)c3cccnc3)cn2)cc1` (stereo not given)?
PINK1 modulator: 0.4%

Results for CCOC(=O)C1CCCCN1C(=O)c1cnn(-c2nccc(-c3cc(C)sc3C)n2)c1C1CC1 (stereo not given) ?
PINK1 modulator: 0.6%

What do the screens show for `CC(=O)N1CCN(/[N+]([O-])=N/Oc2ccc([N+](=O)[O-])cc2[N+](=O)[O-])CC1`?
PINK1 modulator: 0.6%

What do the screens show for `Cc1ncc2c(c1CNC(=O)c1cncs1)CCN(C(=O)c1csc(-c3cccs3)n1)C2`?
PINK1 modulator: 1.5%

What do the screens show for `Cc1csc(CNc2ncnc3ccc(-c4cccc(Cl)c4)cc23)c1`?
PINK1 modulator: 14%

Results for CCCOc1ccc(Cl)cc1Nc1nc(NCCO)nc(N2CCCC2)n1 ?
PINK1 modulator: 5.7%

What do the screens show for `COCc1c(C(=O)NCC2CCCN(C)C2)cnn1-c1ncc2c(n1)-c1ccccc1CCC2` (stereo not given)?
PINK1 modulator: 0.0%

What do the screens show for `Cc1cc(C(=O)NCC2CCC3(CCN(Cc4ccc(-c5ccccc5)cc4)CC3)O2)n(C)n1` (stereo not given)?
PINK1 modulator: 0.5%

How did COCC(=O)Nc1cc(C(=O)N2CC3CCCC2C3)c2c(c1)nc(-c1ccncc1)n2C (stereo not given) do in these assays?
PINK1 modulator: 1.8%

How did Cc1nc2ccc(C(=O)N3CCOc4ccc(CN5CCOCC5)cc4C3)cc2nc1C do in these assays?
PINK1 modulator: -0.2%

How did Cc1csc(CN(C)C(=O)c2sc3ncnc(NCC4CCCO4)c3c2C)n1 (stereo not given) do in these assays?
PINK1 modulator: -0.6%

What do the screens show for `Cc1nc(SCc2nc3cc(Cl)c(F)cc3[nH]2)c2oc3ccccc3c2n1`?
PINK1 modulator: 14µM*

Results for COc1ccc(OC)c(C(=O)N2CCc3c(cnc(C)c3CNS(=O)(=O)N(C)C)C2)c1 ?
PINK1 modulator: -0.5%

Results for CO[C@H]1[C@H](NC(=O)C(C)C)c2ccccc2C12CCN(Cc1cnc(N(C)C)s1)CC2 ?
PINK1 modulator: 0.7%

In the list so far, these contain two or more sulfur atoms:
Results for Cc1ccc(CN2C[C@H](Sc3ccccn3)C[C@H]2C(=O)Nc2ccc3sc(C)nc3c2)s1 ?
PINK1 modulator: -0.1%

What do the screens show for `Cc1ncc2c(c1CNC(=O)c1cncs1)CCN(C(=O)c1csc(-c3cccs3)n1)C2`?
PINK1 modulator: 1.5%

How did Cc1csc(CN(C)C(=O)c2sc3ncnc(NCC4CCCO4)c3c2C)n1 (stereo not given) do in these assays?
PINK1 modulator: -0.6%

(listing goes on)
What do the screens show for `COc1cc(=O)n2c(c1C(=O)NC(C)c1ccco1)CCN(C(=O)c1cccc(C)c1)CC2` (stereo not given)?
PINK1 modulator: -0.6%

How did Cc1ccc2c(c1)CN(CCNC(=O)c1ccc3nc(C)[nH]c3c1)CC(C)O2 (stereo not given) do in these assays?
PINK1 modulator: 0.3%

Results for COc1ccc(N2C(=O)[C@@H]3C[C@H]2CN3Cc2ccc3nccnc3c2)cc1Cl ?
PINK1 modulator: -0.3%

How did CC(=O)NC(C)c1cc(Cl)c2cccnc2c1O (stereo not given) do in these assays?
PINK1 modulator: 7.3%

Results for COc1cccc(C(=O)N2CCCC(c3nc(SCCN4CCOCC4)ncc3C)C2)c1 (stereo not given) ?
PINK1 modulator: 2.1%

How did CC(Cl)OC(=O)Nc1cccc2cccnc12 (stereo not given) do in these assays?
PINK1 modulator: 0.7%

What do the screens show for `C[C@H]1CN(S(=O)(=O)c2c(F)cccc2F)CCN1S(=O)(=O)c1ccc2c(c1)OCCO2`?
PINK1 modulator: 0.8%

What do the screens show for `NC(=O)C1CCCN(Cc2ccc3c(c2)CN(Cc2cn[nH]c2-c2ccc(F)cc2)CCO3)C1` (stereo not given)?
PINK1 modulator: -0.8%

Results for COC(=O)[C@@H]1CCCN1Cc1ccc2c(c1)CN(Cc1cccn1-c1ncccn1)CCO2 ?
PINK1 modulator: -0.3%

Results for COc1ccccc1N1CCN(c2nc(CNC(=O)c3sc(C)nc3C)nc3ccccc23)CC1 ?
PINK1 modulator: 0.6%

Results for Cc1oc(-c2ccccc2NC(=O)C2CCC2)nc1CNC(=O)c1c(F)ccc(F)c1F ?
PINK1 modulator: -0.3%

Results for COc1cc(CN2C(=O)CC[C@@H]3CN(Cc4ccccn4)CC[C@@H]32)cc(OC)c1OC ?
PINK1 modulator: 1.6%

Quoted at random: 2 records from the list.
Results for CN(Cc1ccco1)Cc1cc(-c2ccnc3cc(Cl)ccc23)ccc1O ?
PINK1 modulator: -0.5%

What do the screens show for `COc1cccc(O)c1CN1CCC2(CC1)c1ccccc1[C@@H](NC(=O)c1ccsc1)[C@@H]2OC`?
PINK1 modulator: -0.8%

Next section.
What do the screens show for `CCc1nc2cc(C(=O)N(C)CC3CCCN(C)C3)cc(NC(=O)c3ccccc3OC)c2n1C` (stereo not given)?
PINK1 modulator: 0.5%

Results for O=S(=O)(/C=C/c1ccccc1)N1CCC(n2c(C3CCCO3)nc3cccnc32)CC1 (stereo not given) ?
PINK1 modulator: 0.5%

What do the screens show for `c1csc(CNc2ncnc3ccc(-c4ccc5c(c4)OCCO5)cc23)c1`?
PINK1 modulator: 22%

Results for Cc1ccc(CNc2nc(CN3CCSCC3)nc3ccccc23)o1 ?
PINK1 modulator: 0.1%

How did Cc1cc(C(=O)NCC2CCC3(CCN(Cc4cc(F)ccc4F)CC3)O2)n(C)n1 (stereo not given) do in these assays?
PINK1 modulator: -1.1%

How did COc1ccc(-c2ccc(C(=O)N(C)Cc3csc(C)n3)c(N3CCC(N4CCc5ccccc5C4)CC3)n2)cc1 do in these assays?
PINK1 modulator: -0.2%

What do the screens show for `O=C1CCN(Cc2ccc(-c3ccccc3)cc2)CCN1Cc1ccccn1`?
PINK1 modulator: 0.9%

How did COc1ccc(C2=Nn3c(nnc3-c3ccccc3Cl)SC2)cc1OC1CCOC1 (stereo not given) do in these assays?
PINK1 modulator: 14%

What do the screens show for `COC(=O)[C@@H]1C[C@H](NC(=O)c2ccccc2C(F)(F)F)CN1Cc1cccc(O)c1`?
PINK1 modulator: 0.1%

How did O=C(c1ccc(F)c(F)c1)N1CCOc2ccc(CN3CCN(CCO)CC3)cc2C1 do in these assays?
PINK1 modulator: 0.1%

How did Cc1ccc2[nH]c(C(=O)N3CCc4c(cnc(C)c4CNC(=O)c4ccccc4F)C3)cc2c1 do in these assays?
PINK1 modulator: -0.5%

What do the screens show for `Cc1cc2c(c(-c3cnccn3)c1)OC(CNC(=O)C1CCCN(C)C1)C2` (stereo not given)?
PINK1 modulator: 0.9%

Results for O=C(Cc1ccc2c(c1)OCO2)N1CCOc2ccc(CN3CCOCC3)cc2C1 ?
PINK1 modulator: -0.5%

How did CC(C)c1c(C(=O)N2CCCCC2c2cccnc2)cnn1-c1nccc(-c2cccs2)n1 (stereo not given) do in these assays?
PINK1 modulator: -0.2%

How did Oc1ccc(Cl)cc1Nc1nc(NCC2CCCO2)c2ccccc2n1 (stereo not given) do in these assays?
PINK1 modulator: 6.4%

How did COC(=O)c1cc(CNC(=O)c2cccc(C)c2)cc(NC(=O)c2ccncc2)c1 do in these assays?
PINK1 modulator: 0.4%

Results for CSc1ncccc1C(=O)N1CCOc2ccc(C(C)(O)CCn3cccn3)cc2C1 (stereo not given) ?
PINK1 modulator: -0.8%

Results for COc1ccc(-n2c(CCNC(=O)c3ccc(-c4cccc(F)c4)cc3)nnc2SC)cc1 ?
PINK1 modulator: -0.4%

Results for COc1ccc(-n2c(CNC(=O)c3cc(C(F)(F)F)ccc3Cl)nnc2SC)cc1 ?
PINK1 modulator: -0.2%

What do the screens show for `COCCOC(=O)N1CCN(/[N+]([O-])=N/Oc2ccc([N+](=O)[O-])cc2[N+](=O)[O-])CC1`?
PINK1 modulator: 5.6%

Results for CCCc1nc2cccnc2n1C1CCN(C(=O)Cn2nccc2C)CC1 ?
PINK1 modulator: 0.4%

How did Cc1cc(C(=O)Nc2cccc(-c3nc(CNC(=O)c4ccccc4C(F)(F)F)c(C)o3)c2)c(C)o1 do in these assays?
PINK1 modulator: 2.5%

Results for Cc1cc2c(c(-c3cnccn3)c1)OC(CNC(=O)c1c(F)cccc1Cl)C2 (stereo not given) ?
PINK1 modulator: 1.8%

Results for COc1cccc(CN2C(=O)[C@H]3Cc4c([nH]c5ccccc45)C(C)(C)N3C2=O)c1 ?
PINK1 modulator: 12%

Structures above with an NH in an aromatic ring, in the order listed:
How did CCC1CN(Cc2cn[nH]c2-c2ccc(OC)cc2)Cc2cc(OC)ccc2O1 (stereo not given) do in these assays?
PINK1 modulator: 5.6%

How did Cc1ccc(CN2C(=O)[C@@H]3Cc4c([nH]c5ccccc45)C(C)(C)N3C2=O)cc1 do in these assays?
PINK1 modulator: 12%

How did Cc1ccc(C)c(CN2C[C@H](Sc3nc4ccccc4[nH]3)C[C@H]2C(=O)N2CCCN(C)CC2)c1 do in these assays?
PINK1 modulator: -1.1%

What do the screens show for `Cc1nc(SCc2nc3cc(Cl)c(F)cc3[nH]2)c2oc3ccccc3c2n1`?
PINK1 modulator: 14µM*

How did Cc1ccc2c(c1)CN(CCNC(=O)c1ccc3nc(C)[nH]c3c1)CC(C)O2 (stereo not given) do in these assays?
PINK1 modulator: 0.3%

What do the screens show for `NC(=O)C1CCCN(Cc2ccc3c(c2)CN(Cc2cn[nH]c2-c2ccc(F)cc2)CCO3)C1` (stereo not given)?
PINK1 modulator: -0.8%

How did Cc1ccc2[nH]c(C(=O)N3CCc4c(cnc(C)c4CNC(=O)c4ccccc4F)C3)cc2c1 do in these assays?
PINK1 modulator: -0.5%

Results for COc1cccc(CN2C(=O)[C@H]3Cc4c([nH]c5ccccc45)C(C)(C)N3C2=O)c1 ?
PINK1 modulator: 12%

(more compounds)
Results for O=C1c2ccccc2NC(c2ccc(-c3ccc(F)cc3)o2)N1O (stereo not given) ?
PINK1 modulator: 11%

What do the screens show for `Cc1cnc(SCC2CCCO2)nc1C1CCCN(C(=O)c2ccc(S(N)(=O)=O)cc2)C1` (stereo not given)?
PINK1 modulator: 0.5%

Results for COc1cc(C)c(CN2CCc3nnc(C(C)NC(=O)c4cccnc4)n3CC2)cc1C (stereo not given) ?
PINK1 modulator: 0.4%

How did COc1cc(=O)n2c(c1C(=O)N(C)Cc1nccs1)CCN(Cc1c(F)ccc(F)c1F)CC2 do in these assays?
PINK1 modulator: 0.4%

How did CCn1c(-c2ccccc2F)nc2cc(C(=O)NC(c3ccccn3)C(F)(F)F)cc(NC(C)=O)c21 (stereo not given) do in these assays?
PINK1 modulator: 0.8%

What do the screens show for `O=C(NCCN1CCOCC1)c1cnn(-c2nccc(-c3ccccc3F)n2)c1C1CC1`?
PINK1 modulator: -0.4%

Screening results: PubChem, National Center for Advancing Translational Sciences (NCATS)

Only part of the results is shown; the hit share may differ from the screen's.
